Compound activity from PubChem BioAssay.
Mtb MenB inh: blocks the Mycobacterium tuberculosis MenB enzyme. MenB enzyme assay, absorbance read-out; some hits fall short of the stated cut. inhibition, %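 (about 12 µg/mL by stock and volumes)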. P9WNP5. 100,000 compounds, 0.43% hits;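 active = mean of two replicates above 30%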;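 note: 0% = no compound and 100% = wells with inactive enzyme; the first replicate is given; strong numbers were not always called active; inactives centre near -10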
PV pol inh: inhibitors of poliovirus RNA polymerase binding and polymerization | % elongation, % (compound at 16.7 µg/mL) | poliovirus polymerase elongation, fluorescence polarization; stronger effect = lower value | AID 588519 | 150,000 compounds, 0.66% hits | P03300; in the data active = % elongation below about 90%; note: some results filed as inactive read as strong as hits
Target sequence (P03300 1749-2209 limits assumed): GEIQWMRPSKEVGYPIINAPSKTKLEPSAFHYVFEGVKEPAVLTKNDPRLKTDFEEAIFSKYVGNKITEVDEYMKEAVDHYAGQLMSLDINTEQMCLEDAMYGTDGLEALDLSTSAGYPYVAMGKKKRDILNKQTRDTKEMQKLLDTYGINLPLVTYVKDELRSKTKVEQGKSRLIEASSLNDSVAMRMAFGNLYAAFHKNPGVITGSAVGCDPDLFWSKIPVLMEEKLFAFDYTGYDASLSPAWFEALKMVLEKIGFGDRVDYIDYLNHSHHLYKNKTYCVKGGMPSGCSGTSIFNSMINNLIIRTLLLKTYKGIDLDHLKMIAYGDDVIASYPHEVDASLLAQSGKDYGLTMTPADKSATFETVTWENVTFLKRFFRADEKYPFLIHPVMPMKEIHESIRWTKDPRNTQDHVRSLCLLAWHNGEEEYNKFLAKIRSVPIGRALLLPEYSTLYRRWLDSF
MbtI inh: inhibitors of Mycobacterium tuberculosis siderophore enzyme MbtI. 100,000 compounds, 0.89% hits. purified MbtI enzyme, fluorescence intensity read-out. inhibition, %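 (about 17 µg/mL by stock and volumes)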. P9WFX0;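 active = above 50% in both replicates, above 80% if mildly self-fluorescent; inactive = the rest, strongly fluorescent compounds included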;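 note: 0% = mean of negative and 100% = mean of positive controls; one replicate is shown; some compounds called inactive have numbers as strong as hits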
Target sequence (P9WFX0 whole entry, looked up): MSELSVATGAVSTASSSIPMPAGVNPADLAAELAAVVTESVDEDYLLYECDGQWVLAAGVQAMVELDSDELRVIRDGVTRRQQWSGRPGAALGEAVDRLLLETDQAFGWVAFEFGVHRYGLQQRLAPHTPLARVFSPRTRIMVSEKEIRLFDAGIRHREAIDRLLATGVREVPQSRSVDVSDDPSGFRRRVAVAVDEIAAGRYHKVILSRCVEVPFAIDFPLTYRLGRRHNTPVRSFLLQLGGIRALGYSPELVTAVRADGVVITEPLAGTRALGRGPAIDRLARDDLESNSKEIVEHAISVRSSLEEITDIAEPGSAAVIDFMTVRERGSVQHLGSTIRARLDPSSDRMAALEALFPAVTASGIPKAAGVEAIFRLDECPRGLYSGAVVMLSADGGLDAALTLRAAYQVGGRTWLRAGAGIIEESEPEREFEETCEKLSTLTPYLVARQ
PV pol inh intensity: further read-out of PV pol inh, marked with its call; % elongation; measured here: total intensity read-out; formula for this scale not given here;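 total fluorescence in place of polarization; lower means less elongation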
* = called active by the depositor; / = no result given; & = joins results of further samples.

SMILES	Mtb MenB inh	PV pol inh	PV pol inh intensity	MbtI inh
CCOC(=O)c1cc(CC)sc1NC(=O)CCN1CCCCC1	5	101	101	4
O=C(O)CCOc1ccccc1F	3	104	94	5
CC(C)NC(=O)CSc1nc(-c2ccco2)cc(C(F)(F)F)n1	15	100	100	-27
O=C(CCCn1c(=O)c2cccn2c2cccnc21)Nc1ccccc1F	-12	102	109	-3
CC1=CC(C)=N/C1=C/c1c(O)[nH]c(=O)[nH]c1=O	-254	101	102	12
CC1=CC(C)(C)N(C(=O)CN2C(=O)c3ccccc3C2=O)c2ccc(C)cc21	11	100	102	-4
Cc1ccc(NC(=O)c2ccccc2-c2cc(C)no2)cc1	-4	101	101	-4
CC1=C(c2ccc(C)cc2)S(=O)(=O)N(CC(=O)N2CCN(c3ccccc3)CC2)C1=O	2	100	103	-4
CCC(=O)Nc1nc(-c2ccccc2)c(C)s1	-11	101	101	15
COc1cccc(NC(=O)CN(CC(=O)Nc2cccc(OC)c2)CC2COc3ccccc3O2)c1 (stereo not drawn)	-20	101	105	15
Cc1cccc(OCC(=O)Nc2ccccc2)c1	-7	103	105	/
CCOc1cccc2sc(NN)nc12	-60	109	98	11
O=C(O)c1ccccc1SC(F)F	2	98	101	1
CCCn1c(SCC(=O)NCC)nc2sc3c(c2c1=O)CCC3	-14	102	104	4
Cc1nc2ccc(N)cc2s1	-19	104	102	29
c1ccc(N=C2SC(=NC3CCCCC3)C3=C2CCCC3)cc1	10	102	103	-6
CCCc1cc(=O)[nH]c(SCC(=O)NC)n1	4	102	100	-8
Fc1ccc(Nc2nc3ccccc3nc2Nc2ccc(F)cc2)cc1	7	101	107	22
O=C(c1ccccc1)N(c1ccc(Cl)cc1)C1C=CS(=O)(=O)C1 (stereo not drawn)	-6	103	103	-21
CC(NC(=O)CCC1=NS(=O)(=O)c2ccccc2N1)c1ccc2c(c1)OCCO2 (stereo not drawn)	-32	102	101	-3
O=C(O)c1ccc(NC(=O)C2CC2)cc1	0	102	107	/
C/C(=N\NC(=O)C1CC1)c1ccc(C)cc1	0	106	106	10
Cc1ccc(NC(=S)N(C)/N=C/c2ccccn2)cc1Cl	-57	114	108	8
C[N+]1(Cc2ccccc2)CCCC1c1ccc(N)nc1 (stereo not drawn)	-13	101	107	/
O=C(O)Cn1c2c(c3ccccc31)CCCC2	/	88	117	6
CN(C)S(=O)(=O)Nc1cccc(Br)c1	-33	101	101	-12
O=C(O)c1ccc2c(c1)S(=O)(=O)c1ccccc1C2=O	-12	99	100	3
O=C(Cn1c(=O)[nH]n(-c2ccccc2)c1=O)N1CCc2ccccc2C1	-1	102	97	-8
COc1ccc(/C=C2/C(=O)C(C)(C(C)C)CCC2C)cc1 (stereo not drawn)	1	102	103	7
CN(C)c1ccc(C(=O)NCCCN2CCCC2=O)cc1	-1	110	105	12
CCCCCCn1c(SCC(=O)/C(C#N)=C(\C)N)nnc1-c1c[nH]c2ccccc12	-16	108	108	9
Nc1nc(NC(=S)NC2CCS(=O)(=O)C2)n[nH]1 (stereo not drawn)	-39	99	109	9
O=C(NCCCN1CCCC1)c1ccc(CS(=O)c2ccccc2)o1 (stereo not drawn)	-7	100	102	3
COc1cc2c(cc1OC)C1=C(C#N)CCC(=NC(=O)c3ccccc3F)N1CC2	-2	102	102	7
O=C(CSCc1nc2sc3c(c2c(=O)[nH]1)CCC3)Nc1ccc(-c2nnc3n2CCCCC3)cc1	-44	133	156	2
CC1(C)OC(=O)C(C23CC4CC(CC(C4)C2)C3)C(=O)O1	-23	100	103	6
O=C(CNCc1ccco1)Nc1ncc(Cc2ccc(Cl)cc2)s1	-15	/	/	6
O=C1NC(Nc2nccs2)(C(F)(F)F)C(=O)N1CCc1ccccc1 (stereo not drawn)	8	100	101	6
CCCn1nc(C(=O)NCC)c2ccccc2c1=O	-27	100	103	10
CCCn1c(NCc2ccc(OC)cc2)nc2ccccc21	-9	100	102	44
O=C(COC(=O)c1ccc2c(c1)NC(=O)CS2)NCc1cccs1	7	11*	33*	10
CCOC(=O)Nc1cc(C(F)(F)F)ccc1C(F)(F)F	-4	106	104	0
COc1cc(OC)c(C(=O)N2CCCCCCC2)cc1OC	-16	101	102	-6
Cc1ccc(N2C(S)=C(C#N)C(=O)NC2c2cccs2)cc1 (stereo not drawn)	-4	100	110	30
Cc1c(C(=O)O)oc2ccc3c(c12)C(=O)CC(C)(C)O3	5	101	104	-2
Cc1ccc(-n2c(CN)nc3ccccc3c2=O)cc1	-12	97	92	2
CC(C)OC(=O)C1=c2s/c(=C\c3cccnc3)c(=O)n2C(N)=C(C#N)C1c1cccnc1 (stereo not drawn)	4	102	103	-1
CC1CCC(=NNC(=S)NCC2CCCO2)CC1 (stereo not drawn)	-35	105	101	-5
Cc1c(C(=O)NCc2ccco2)oc2ccc(S(=O)(=O)N3CCC4(CC3)OCCO4)cc12	-25	104	102	-3
CCCC1CN2CCC3=C(CCC3)C2(C)C1 (stereo not drawn)	-20	103	108	-9

(list continues)
SMILES	Mtb MenB inh	PV pol inh	PV pol inh intensity	MbtI inh
CCOC(=O)N1CCN(C(=O)Cc2cccc3ccccc23)CC1	-22	100	100	-11
O=C(CSc1nc2c(n1-c1ccccc1)CCCC2)N1CCN(C(=O)c2cccs2)CC1	-2	104	108	2
COc1ccccc1C(=O)CS(=O)(=O)c1ccc(C)cc1	-23	101	100	26
O=C(NC1CCCC1)C1CCCN(S(=O)(=O)N2CCCC2)C1 (stereo not drawn)	-13	104	108	-9
O/N=C/c1ccccc1Cl	-3	101	108	14
CC1CCN(Cc2ccc(NC(=O)CCc3nc(C4=CCN(C)CC4)no3)cc2)CC1	-34	99	102	19
CC1CCCCC1n1c(-c2cccnc2)n[nH]c1=S (stereo not drawn)	-32	103	103	-3
O=C(O)c1coc2c1/C(=N/N1CCCCC1)CCC2	-5	102	111	-5
COc1ccc(O)c(C(=O)c2cc(C#N)c(=O)n(CC3CCCO3)c2)c1 (stereo not drawn)	-23	106	119	14
CCCn1c2ccccc2c2nnc(SC(CC)C(=O)Nc3nc(C)c(C(=O)OCC)s3)nc21 (stereo not drawn)	-5	102	103	-16
CC(C)NC(=O)CCCN1C(=O)CSc2ncccc21	-16	103	109	-6
CCN(C(=O)NCc1ccccc1)C1CCCCC1	-13	107	100	-18
COc1cc(Br)cc(C2C3=C(CCCC3=O)N(c3ccc(F)cc3)C3=C2C(=O)CCC3)c1O	-10	100	104	-8
COC(=O)c1ccccc1NC(=O)c1cc(OC)cc(OC)c1	-10	101	97	0
O=C(NCCO)c1nnc(-c2ccccc2)o1	-2	100	104	-9
COC(=O)/C=C1\SC(=Nc2ccc(C)c(C)c2)N(c2ccc(C)c(C)c2)C1=O	-14	103	108	-8
CC(=NCCc1c[nH]c2ccccc12)c1ccccc1O	-10	99	109	-14
N=C1c2ccccc2CN1c1ccc2c3c(cccc13)C(=O)N2	-25	96	95	1
COc1ccccc1N1CCN(C(=O)C2C3C=CC(O3)C2C(=O)O)CC1 (stereo not drawn)	-18	104	108	-11
CCOc1ccc(C2(C)N([O-])C(CC)=C(c3ccccc3)[N+]2=O)cc1 (stereo not drawn)	-13	98	102	-1
O=C1NC2(CCN(C(=O)NCc3ccc(F)cc3)CC2)Oc2ccccc21	-15	101	103	0
Cc1ccccc1NC(=O)CSC(=O)c1ccccc1	/	103	95	75*
Cc1ccc(-c2noc(C3CCN(C(=O)Nc4ccc(C#N)cc4)CC3)n2)o1	-35	103	99	-1
C=C1Cn2c(nnc2-c2sc3ccccc3c2Cl)S1	-24	/	/	21
Cc1cc(C)c2c(-n3cccc3)nn(CC(=O)NC(C)c3ccc4c(c3)OCCO4)c2n1 (stereo not drawn)	-23	102	104	-13
OC(c1nnc(-c2ccccc2)o1)c1cn(-c2ccccc2)nc1-c1cccnc1 (stereo not drawn)	-9	104	101	-28
CC1CCCCN1C(=O)CNCc1ccc(F)cc1 (stereo not drawn)	-41	103	104	-15
CC(C)Oc1ccccc1Nc1ncnc2ccccc12	-1	105	107	21
COc1ccc(-c2ccc(C(=O)O)c(=O)[nH]2)cc1	-13	102	101	89
Cc1cccc(Nc2nc3nonc3nc2Cl)c1	-15	48*	61*	/

Structures listed so far that contain fluorine:
SMILES	Mtb MenB inh	PV pol inh	PV pol inh intensity	MbtI inh
O=C(O)CCOc1ccccc1F	3	104	94	5
CC(C)NC(=O)CSc1nc(-c2ccco2)cc(C(F)(F)F)n1	15	100	100	-27
O=C(CCCn1c(=O)c2cccn2c2cccnc21)Nc1ccccc1F	-12	102	109	-3
O=C(O)c1ccccc1SC(F)F	2	98	101	1
Fc1ccc(Nc2nc3ccccc3nc2Nc2ccc(F)cc2)cc1	7	101	107	22
COc1cc2c(cc1OC)C1=C(C#N)CCC(=NC(=O)c3ccccc3F)N1CC2	-2	102	102	7
O=C1NC(Nc2nccs2)(C(F)(F)F)C(=O)N1CCc1ccccc1 (stereo not drawn)	8	100	101	6
CCOC(=O)Nc1cc(C(F)(F)F)ccc1C(F)(F)F	-4	106	104	0
COc1cc(Br)cc(C2C3=C(CCCC3=O)N(c3ccc(F)cc3)C3=C2C(=O)CCC3)c1O	-10	100	104	-8
O=C1NC2(CCN(C(=O)NCc3ccc(F)cc3)CC2)Oc2ccccc21	-15	101	103	0
CC1CCCCN1C(=O)CNCc1ccc(F)cc1 (stereo not drawn)	-41	103	104	-15

(cont.)
SMILES	Mtb MenB inh	PV pol inh	PV pol inh intensity	MbtI inh
COC(=O)c1ccc(OC(=O)c2cccnc2SC)cc1	-4	101	90	2
Cc1cc(C)nc(/N=C(/NC(=O)Nc2cccc(Cl)c2)Nc2ccccc2C)n1	-3	103	109	-10
Cc1nn(-c2ccccn2)c2c1C(=O)CC(c1ccco1)C2 (stereo not drawn)	-29	102	106	/
O=C(O)CCC(=O)N1N=C2/C(=C/c3ccc(F)cc3)CCCC2C1c1ccc(F)cc1 (stereo not drawn)	-20	103	107	-6
OC(CSc1ccc(Cl)cc1)CN1CCOCC1 (stereo not drawn)	-11	101	105	21
COc1ccc(-c2nc3ccccc3n2C)cc1	/	104	107	-50
Cc1c(NC(=O)c2nn(C(C)C)c(=O)c3ccccc23)c(=O)n(-c2ccccc2)n1C	-19	110	98	36
Cc1nc2c(cc1C#N)C(O)Oc1c(Cl)cc(Cl)cc1-2 (stereo not drawn)	-63	127	137	-8
CCn1c(=O)n(CC)c2cc(N3CCCC3)c(NS(C)(=O)=O)cc21	4	103	100	100
C=CCn1c(C)ccc1C	/	101	109	-4
O=C(Nc1ccccc1)ON=C1CCCC1	14	102	103	1
CCOc1ccc(N=C(c2ccccc2)N2CCOCC2)cc1	-20	99	100	-21
Cc1[nH]c(-c2ccc(F)cc2)cc1C(=O)N1CCN(C2CCCCC2)CC1	-7	103	103	-96
COC(=O)CN(C(=O)c1cc2ccccc2oc1=O)c1ccc(Br)cc1	-10	104	106	-8
CCOC(=O)C1CCCCN1Cc1ccc(C)cc1 (stereo not drawn)	-5	99	99	-6
Cc1ccc(-n2c(SCCCC#N)nnc2-c2ccccc2)cc1C	-8	103	105	2
Nc1ccccc1CC(c1c[nH]c2ccccc12)c1c[nH]c2ccccc12	-27	104	103	11
Oc1ccc(SSc2ccc(O)cc2)cc1	41*	99	102	45
CCOC(=O)/C=c1\s/c(=C\c2cccs2)c(=O)n1CC(N)=O	-56	104	111	3
O=C(c1c[nH]c(-c2nnc3ccccn23)c1)c1ccccc1O	-7	120	145	-21
O=C(CSc1nnc(COc2ccc(F)cc2)o1)N1c2ccccc2CCc2ccccc21	-51	102	102	-1
CCOC(=O)c1oc2ccccc2c1COC(=O)C1=NN(c2ccccc2)C(=O)CC1	-16	107	106	2
O=C1CCC(C(=O)N2CCN(Cc3ccccc3)CC2)N1 (stereo not drawn)	-18	102	102	-13
Cc1ccc(C)c(CN2C(=O)c3ccccc3S(=O)c3ccc(C(=O)N4CCCCCC4)cc32)c1 (stereo not drawn)	-10	102	107	-9
CC(C)(C)c1ccc(N2C(=O)CCC2=O)cc1	-7	107	110	/
COC(=O)C1=CN(Cc2cccs2)C=C(C(=O)OC)C1c1cccs1	-3	100	102	-90
CC(CN(C)C)CN1c2ccccc2Sc2ccccc21 (stereo not drawn)	-7&10	101&101	99&98	-7&-28
CC1CC(C)N(C(=O)c2cc(-c3ccccc3)on2)C(C)C1 (stereo not drawn)	7	101	102	2
O=C1OCc2ccc(NS(=O)(=O)c3ccc(N4C(=O)CCC4=O)cc3)cc21	4	104	103	0
Cc1cnc(NC(=O)C2=NN(c3ccccc3)C(=O)CC2)s1	-7	96	92	6
O=C(/C=C1\Sc2ccccc2NC1=O)NCc1cccnc1	-23	102	103	-5
Cc1cc(N2CCN(C3=NCC(C)(C)S3)CC2)n2c(nc3ccccc32)c1C#N	-15	103	102	-21
CC(C)=C1CCC(C)C/C1=N\O (stereo not drawn)	-3	103	99	-1
N#Cc1ccccc1S(=O)(=O)Nc1ccc2c(c1)C(=O)OC2	-18	102	92	-4
Cc1oc(C(=O)O)cc1CN1CCCC1	-26	100	98	-11
CCCn1c(=O)c2ccccc2n2c(SCC(=O)N3CCN(C(=O)OCC)CC3)nnc12	-3	98	103	25
